Screening data: PubChem, ICCB-Longwood Screening Facility, Harvard Medical School
Mtb MbtI inh = MbtI salicylate synthase inhibition; inhibition, %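 (about 17 µg/mL by stock and volumes)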; purified MbtI enzyme, fluorescence intensity read-out; P9WFX0; 0.89% of 100,000 active;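 active = above 50% in both replicates, above 80% if mildly self-fluorescent; inactive = the rest, strongly fluorescent compounds included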;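 note: 0% = mean of negative and 100% = mean of positive controls; one replicate is shown; some compounds called inactive have numbers as strong as hits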
Target sequence (P9WFX0 whole entry, looked up): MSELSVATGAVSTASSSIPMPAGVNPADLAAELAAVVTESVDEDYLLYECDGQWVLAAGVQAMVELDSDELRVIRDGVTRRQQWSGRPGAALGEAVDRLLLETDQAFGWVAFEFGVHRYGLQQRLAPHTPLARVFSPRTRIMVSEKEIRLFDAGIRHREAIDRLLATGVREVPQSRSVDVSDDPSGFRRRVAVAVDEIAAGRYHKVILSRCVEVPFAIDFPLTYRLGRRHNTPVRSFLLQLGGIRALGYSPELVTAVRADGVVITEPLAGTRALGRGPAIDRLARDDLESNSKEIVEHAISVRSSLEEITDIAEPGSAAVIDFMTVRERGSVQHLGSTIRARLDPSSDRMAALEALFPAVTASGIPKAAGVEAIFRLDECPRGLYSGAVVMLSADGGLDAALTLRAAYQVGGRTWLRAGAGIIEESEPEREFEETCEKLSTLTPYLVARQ
PV pol inh = poliovirus RNA polymerase inhibition; AID 588519; 0.66% of 150,000 active; P03300; % elongation, % (compound at 16.7 µg/mL); poliovirus polymerase elongation, fluorescence polarization; hits give low values; in the data active = % elongation below about 90%; note: some results filed as inactive read as strong as hits
MenB inh = Mtb MenB enzyme inhibition; P9WNP5; MenB enzyme assay, absorbance read-out; some hits fall short of the stated cut; inhibition, %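 (about 12 µg/mL by stock and volumes)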; 0.43% of 100,000 active; AID 540299;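 active = mean of two replicates above 30%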;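 note: 0% = no compound and 100% = wells with inactive enzyme; the first replicate is given; strong numbers were not always called active; inactives centre near -10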
Target sequence (P9WNP5 whole entry, looked up): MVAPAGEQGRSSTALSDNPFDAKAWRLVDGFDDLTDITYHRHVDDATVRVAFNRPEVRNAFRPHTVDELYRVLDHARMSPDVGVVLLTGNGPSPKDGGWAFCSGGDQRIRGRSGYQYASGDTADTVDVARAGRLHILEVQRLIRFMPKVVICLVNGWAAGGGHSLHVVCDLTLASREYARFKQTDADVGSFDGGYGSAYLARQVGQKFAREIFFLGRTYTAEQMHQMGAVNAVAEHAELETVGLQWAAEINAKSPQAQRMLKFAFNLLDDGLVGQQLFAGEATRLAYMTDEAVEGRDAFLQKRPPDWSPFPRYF
PV pol inh intensity = further read-out of PV pol inh, marked with its call; % elongation; measured here: total intensity read-out; formula for this scale not given here;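 total fluorescence in place of polarization; lower means less elongation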
* hit, by the source's call; i = inactive; . = no result given.

SMILES | Mtb MbtI inh | PV pol inh | PV pol inh intensity | MenB inh
CCCCN1C(=O)c2ccc(C(=O)Nc3ccc(S(=O)(=O)N(C)C)cc3)cc2C1=O | -6 | 108 | 104 | -2
CS(=O)(=O)c1ccc(Br)cc1 | . | 105 | 112 | -3
O=C(OCC(=O)c1ccco1)c1ccc(S(=O)(=O)NCc2ccco2)cc1 | 7 | 102 | 107 | -12
CCCNC(=O)CCc1c(C)nc2cc(-c3ccccc3)nn2c1C | 4 | 103 | 107 | -7
CCOCCSc1nc(=O)n2cc(C)ccc2n1 | -9 | 103 | 105 | -14
COc1cccc(OC)c1C(=O)NC(=S)Nc1ccc2[nH]c(=O)[nH]c2c1 | -10 | 100 | 102 | -18
CCOc1cc(C(=O)N2CCN=C2SC)cc(OCC)c1OCC | 3 | 101 | 106 | -28
CCn1cc(CNC(=S)Nc2cccc(Cl)c2C)cn1 | 5 | 100 | 103 | -5
Cc1ccc(CN(C)C(=O)COc2ccccc2C#N)o1 | 4 | 110 | 113 | -3
N#CC(C#N)=CNc1ccc(S(=O)(=O)c2ccc(NC=C(C#N)C#N)cc2)cc1 | -1 | 102 | 101 | -14
CCN(CC)CCc1c(C)c2ccc(O)cc2oc1=O | . | 92 | 77 | -7
Cc1ccc(-c2csc(-c3ccno3)n2)cc1 | 0 | 104 | 106 | -16
COC(=O)c1cc(Cn2cc(C(F)(F)F)cc(Cl)c2=O)oc1C | 9 | 99 | 95 | -8
O=C(NCc1ccccc1)C(C(=O)c1ccccc1)n1ccccc1=O (stereo not drawn) | . | 104 | 112 | 6
CC(=O)Nc1cccc(-c2nnc(-c3cccc(C)c3)o2)c1 | -55 | 101 | 102 | -9
O=S(=O)(Nc1ccc(N2CCCCC2)cc1)c1ccc(-c2cc(C(F)(F)F)on2)s1 | -7 | 104 | 105 | -13
O=C(O)C1C2CCC(C2)C1C(=O)NCCCN1CCCC1=O (stereo not drawn) | -18 | 100 | 101 | 8
O=c1[nH]n(-c2ccccn2)c(=O)c2ccccc12 | 3 | 99 | 98 | -13
CCCC(=O)Oc1ccc2oc(-c3ccc(OC)cc3)cc(=O)c2c1 | i | 104 | 107 | -95
COc1cccc(C(=O)N2CCN(Cc3cccc(C)c3)CC2)c1OC | 1 | 103 | 98 | -119
Cc1nc2c(C(=O)NCCN3CCOCC3)cnn2c(C)c1Cc1cccc(Cl)c1 | -10 | 101 | 106 | -4
CC(C)C(=O)NC(c1ccc(N(C)C)cc1)c1ccc2cccnc2c1O (stereo not drawn) | 8 | 100 | 101 | -104
CC(=O)N1Cc2ccccc2CC1C(=O)Nc1ccc(S(=O)(=O)N(C)C)cc1 (stereo not drawn) | -5 | 101 | 109 | -26
COc1cc(OC)cc(C(=O)Nc2ccccn2)c1 | . | 105 | 106 | 3
CP(C)(=O)c1ccccc1C(=O)O | -3 | 100 | 98 | -41
CN(C)c1ccc(CNCCC2(O)CCOC(C)(C)C2)cc1 (stereo not drawn) | 4 | 101 | 103 | 9
N#CCOC(=O)c1nc(-c2ccccc2)n(-c2ccccc2)n1 | -5 | 83* | 81* | -11
O=C(Nc1cccnc1)c1noc2c1CCCC2 | 18 | 100 | 102 | 4
CCCNC(=O)Nc1ccccc1C | 4 | 102 | 96 | 9
OC(COc1ccccc1)CSc1nc2ccccc2o1 (stereo not drawn) | . | 102 | 110 | -1
O=S1(=O)CCC(N=Nc2c(O)[nH]c3ccc(Br)cc23)C1 (stereo not drawn) | 16 | 103 | 105 | -35
CS(=O)(=O)N1CCCc2cc(C(=O)CSc3nnc(COc4ccccc4Cl)o3)ccc21 | -4 | 108 | 124 | -22
Cc1ccc(NC(=O)C2C(=O)N(CCO)C3(C)CC2c2ccccc2O3)c(C)c1 (stereo not drawn) | . | 105 | 107 | -10
Cc1ccccc1-c1nc(-c2ccccn2)no1 | 4 | 102 | 102 | -14
Nc1nc2ccccc2n1Cc1ccccc1F | -9 | 103 | 106 | .
CCOc1ccccc1NC(=O)N1CCCC(c2nc3c(nnn3Cc3ccc(C)cc3)c(=O)[nH]2)C1 (stereo not drawn) | -4 | 100 | 104 | 17
O=C(Cc1ccc(Cl)cc1)NCc1ccc2[nH]c3c(c2c1)CCCC3 | -9 | 100 | 107 | -4
CC1CCCC(Nc2c(-c3ccc(Cl)cc3)nc3c(C#N)c[nH]n23)C1C (stereo not drawn) | 18 | 103 | 102 | -2
CN(C)C(=S)NCCC1=CCCCC1 | -9 | 101 | 107 | -4
CCOC(=O)C1=C(O)/C(=C/c2ccco2)SC1=Nc1cccc(Cl)c1 | 19 | 103 | 113 | -3
O=C(O)c1csc(-c2ccccc2)n1 | 32 | . | . | -18
Cn1cccc1CNCCc1ccccc1 | -1 | 104 | 104 | -26
Cc1c(F)cccc1NS(=O)(=O)c1ccc2c(c1)CCN2S(C)(=O)=O | -7 | 102 | 101 | -18
CC1Oc2ccccc2C=C1/C=C(\C#N)C(=O)N1CCCCC1 (stereo not drawn) | 5 | 93 | 110 | -99
CC1CCCCN1c1nn2nnnc2c2ccccc12 (stereo not drawn) | -16 | 100 | 102 | -3
CCOC(=O)CSc1nc(-c2ccc3c(c2)OCO3)ccc1C#N | -453 | 101 | 101 | -26
Fc1ccc(C2c3cccn3CCN2C(=S)Nc2cccc(F)c2)cc1 (stereo not drawn) | 4 | 101 | 103 | -27
O=C1NC(=O)C(C2(O)C(=O)c3ccccc3C2=O)C(=O)N1 | . | 175 | 130 | -12
CCNC(=O)c1cc(=O)[nH]c2ccccc12 | 129 | 94 | 89 | 8
COc1ccc2[nH]c3c(=O)n(CC(=O)N4CCN(c5ccc(F)cc5)CC4)c(=S)[nH]c3c2c1 | 7 | 99 | 101 | -21

Sorted by molecular weight (lowest first): part of the list above
SMILES | Mtb MbtI inh | PV pol inh | PV pol inh intensity | MenB inh
CCNC(=O)c1cc(=O)[nH]c2ccccc12 | 129 | 94 | 89 | 8
O=C1NC(=O)C(C2(O)C(=O)c3ccccc3C2=O)C(=O)N1 | . | 175 | 130 | -12
CC1Oc2ccccc2C=C1/C=C(\C#N)C(=O)N1CCCCC1 (stereo not drawn) | 5 | 93 | 110 | -99
CCOC(=O)CSc1nc(-c2ccc3c(c2)OCO3)ccc1C#N | -453 | 101 | 101 | -26
Cc1c(F)cccc1NS(=O)(=O)c1ccc2c(c1)CCN2S(C)(=O)=O | -7 | 102 | 101 | -18

Copied from the list:
In MenB inh, `Cc1c(F)cccc1NS(=O)(=O)c1ccc2c(c1)CCN2S(C)(=O)=O` has the entry -18
In Mtb MbtI inh, `O=C(O)c1csc(-c2ccccc2)n1` has the entry 32
In PV pol inh intensity, `COc1ccc2[nH]c3c(=O)n(CC(=O)N4CCN(c5ccc(F)cc5)CC4)c(=S)[nH]c3c2c1` has the entry 101

Other entries
SMILES | Mtb MbtI inh | PV pol inh | PV pol inh intensity | MenB inh
CC(=O)Nc1ccc(S(=O)(=O)N2CCCCC2C(=O)O)cc1 (stereo not drawn) | -42 | 101 | 105 | 9
Cc1nnsc1C(=O)Oc1ccc(-c2n[nH]nc2C#N)cc1 | -15 | 88 | 98 | -15
CCOC(=O)c1cnc2c(C)c(C)ccc2c1NCCCCCO | 0 | 102 | 102 | -12
COc1ccccc1-c1coc2c(CN(C)C3CCCCC3)c(O)ccc2c1=O | . | 102 | 108 | -6
C=CCc1cc(C)ccc1OCCNC(C)C | -4 | 101 | 100 | -9
COc1ccccc1N1CCN(C(=O)CCCC(=O)O)CC1 | 2 | 98 | 95 | 7
O=C(CN1C(=O)S/C(=C\C=C\c2ccccc2)C1=O)Nc1cccc(O)c1 | -11 | 103 | 103 | -57
Cc1ccc(S(=O)(=O)NCCSc2nnc3nc(C)cc(C)n23)cc1 | 19 | 101 | 102 | -13
CC1CN(C(=O)CCC(=O)N2CCN(c3ccccn3)CC2)c2ccccc2O1 (stereo not drawn) | -71 | 102 | 105 | -18
CN1CCC(N(C)C2CCN(Cc3ccccc3)CC2)CC1 | -21 | 102 | 103 | -9

Single records, from the list above. Order of values: Mtb MbtI inh, PV pol inh, PV pol inh intensity, MenB inh
`O=C(CN1C(=O)S/C(=C\C=C\c2ccccc2)C1=O)Nc1cccc(O)c1` is listed as -11, 103, 103, -57
`Cc1nnsc1C(=O)Oc1ccc(-c2n[nH]nc2C#N)cc1` is listed as -15, 88, 98, -15
`Cc1ccc(S(=O)(=O)NCCSc2nnc3nc(C)cc(C)n23)cc1` is listed as 19, 101, 102, -13
`COc1ccccc1N1CCN(C(=O)CCCC(=O)O)CC1` is listed as 2, 98, 95, 7
`CC(=O)Nc1ccc(S(=O)(=O)N2CCCCC2C(=O)O)cc1` (stereo not drawn) is listed as -42, 101, 105, 9

Other results
SMILES | Mtb MbtI inh | PV pol inh | PV pol inh intensity | MenB inh
NC(=O)COC(=O)c1ccc(F)cc1Cl | -10 | 104 | 109 | .
O=C1CC(c2ccccc2)NC(=S)N1 (stereo not drawn) | 0 | 102 | 100 | -74
Cc1ccc(C(=O)OCC(=O)N2CCC(Cc3ccccc3)CC2)cc1N | 6 | 101 | 103 | .
CCNC(=S)N/N=C/c1c(F)cccc1F | 17 | 99 | 98 | -29
CC1CCCCN1C(=O)CN1C(=O)c2ccccc2C1=O (stereo not drawn) | -5 | 101 | 103 | 10
Nc1cc(=O)nc(SCc2ccccc2)n1Cc1ccco1 | -6 | 106 | 103 | -24
CCOc1ccc(Nc2ccc(S(=O)(=O)N3CCOCC3)cn2)cc1 | 9 | 101 | 108 | -7
CCN1C(=O)/C(=N\N2CCN(C)CC2)c2ccccc21 | -1 | 106 | 97 | -130
Nc1nnnn1/N=C1/C(=O)Nc2ccc(Br)cc21 | . | 72* | 80* | -60
N#Cc1cc(C#N)c(SCCN2CCOCC2)nc1N | 47 | 12 | 157 | -20
O=c1c(Oc2ccccc2)c(C(F)(F)F)oc2c3c(ccc12)OCO3 | -4 | 103 | 100 | -43
CN(c1ccccc1C(=O)NCCc1ccccc1)S(C)(=O)=O | -16 | 99 | 107 | -5
CC(C)(C)c1cc(CN)c(C(=O)O)o1 | -10 | 100 | 99 | 19
CC(CS(=O)(=O)c1ccc2c(c1)NC(=O)C(C)S2)C(=O)NC1CCCCCC1 (stereo not drawn) | -10 | 102 | 102 | -3
Cc1ccc(CC(C#N)Sc2nnc3n2CCCCC3)cc1 (stereo not drawn) | -6 | 101 | 107 | 4
CCc1ccnc(NC(=O)CC2(CC(=O)O)CCCCC2)c1 | -11 | 101 | 105 | -17
COC(=O)COc1ccc(S(=O)(=O)N2CCN(c3ccccc3F)CC2)cc1Cl | -6 | 105 | 99 | -65
COC(=O)C1=C(C)N2[C@@H](C=C1)[C@@](C#N)(C(N)=O)[C@@H](c1ccccc1)[C@@H]2C(=O)OC | . | 44 | 246 | -47
CC(C)(C)NC(=O)Cc1ccccc1 | -16 | 102 | 104 | 38*
CCCCN1C(=O)CCC(C(=O)O)C1c1ccccc1OC (stereo not drawn) | -11 | 98 | 97 | -5
Nc1nc(N2CCCCC2)ncc1F | 114 | 101 | 104 | 13
Cc1nc2ccc(C(F)(F)F)cc2n1CCc1ccccc1 | . | 100 | 94 | -13
Cc1cc(C(F)(F)F)n2nc(C(N)=O)cc2n1 | -13 | 104 | 105 | -66
CC1(C)CC(=O)CC(=Nc2ccccc2N)C1 | 11 | 103 | 104 | -15
CCCn1c(SCc2c(C)noc2C)nc2ccccc2c1=O | 14 | 103 | 101 | -19
Cc1nn(-c2ccccc2)c2sc(C(=O)c3nccn3C)cc12 | -13 | 102 | 106 | .
Cc1ccc(/C=C(\NC(=O)c2ccccc2)C(=O)NCC2CCCO2)o1 (stereo not drawn) | 18 | 100 | 101 | -8
CCOC(=O)C1CCCN(C(=O)CN2N=C(c3ccccc3)CCC2=O)C1 (stereo not drawn) | -18 | 99 | 103 | -10
S=c1sc2ccccc2n1CCn1c(=S)sc2ccccc21 | -3 | 103 | 105 | 6
N#Cc1cc(C(N)=O)c(SCc2ccccc2)nc1N | 103 | 105 | 103 | -37
O=C1Nc2ccccc2C1C1(O)C(=O)Nc2ccc(F)cc21 (stereo not drawn) | -7 | 100 | 101 | -30
Cc1ccccc1Cn1c(N2CCC(C(=O)N3CCN(C(=O)c4ccco4)CC3)CC2)nc2ccccc21 | -3 | 103 | 100 | -13

Part of the list above, reformatted:
smiles,Mtb MbtI inh,PV pol inh,PV pol inh intensity,MenB inh
CC1(C)CC(=O)CC(=Nc2ccccc2N)C1,11,103,104,-15
CCCn1c(SCc2c(C)noc2C)nc2ccccc2c1=O,14,103,101,-19
Cc1nn(-c2ccccc2)c2sc(C(=O)c3nccn3C)cc12,-13,102,106,.
Cc1ccc(/C=C(\NC(=O)c2ccccc2)C(=O)NCC2CCCO2)o1 (stereo not drawn),18,100,101,-8
CCOC(=O)C1CCCN(C(=O)CN2N=C(c3ccccc3)CCC2=O)C1 (stereo not drawn),-18,99,103,-10
